Marburg entry inh: inhibitors of Marburg virus binding or cell entry; 300,000 tested, 1.8% active; Marburg virus pseudotyped entry inhibition, cell reporter; control for the full effect not named in the record; about a third of the inactives were read at about 46 µM; AID 540276; Potency, µM (highest dose often 37.8 µM), for the others: top-dose activity change, negative = inhibition, most hits filed as inhibitors; active = well fitted inhibition curve with a large enough effect; inconclusive = small, poorly fitted or top-dose-only effect, or effect the other way; inactive = flat fitted curve, though single readings scatter; tested in HEK293 cells; about a fifth of its hits are not listed in these tables; also: % is scaled to controls: 0 for no effect and ±100 for the full control effect; luciferase read-out
NS1 function inh: influenza NS1 inhibition; S. cerevisiae slowed by influenza A NS1, growth recovery by OD600; Potency, µM (top dose mostly 46.1 µM), for inactives: top-dose activity, positive = more growth; 270,000 tested, 0.4% active; active means well fitted rising curve with a large enough effect; inconclusive means small, poorly fitted or top-dose-only effect; inactive means no such curve, though single readings can be large or run the other way; also: nearly all actives have a fitted effect of over 50% in size
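A cell-based growth assay was used: compounds that relieve NS1-induced slow growth of budding yeast raise OD600. Assay medium was yeast nitrogen base with ammonium sulphate and -URA supplement, pH 6.0, with 2% galactose.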
Cruzain inh noDet: blocks cruzain activity in detergent-free assay; purified cruzain, Z-FR-AMC fluorescence, no detergent; P25779; AID 1476; Potency, µM, without a hit: max response, negative = inhibition, usual class: inhibitors; 200,000 tested, 2.3% active;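 also: plate controls were enzyme without inhibitor for no effect and buffer without enzyme for full effect; nearly all actives have a fitted effect of over 40% in size; top concentration of the series not given in the record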
Target sequence (P25779 123-467 limits assumed): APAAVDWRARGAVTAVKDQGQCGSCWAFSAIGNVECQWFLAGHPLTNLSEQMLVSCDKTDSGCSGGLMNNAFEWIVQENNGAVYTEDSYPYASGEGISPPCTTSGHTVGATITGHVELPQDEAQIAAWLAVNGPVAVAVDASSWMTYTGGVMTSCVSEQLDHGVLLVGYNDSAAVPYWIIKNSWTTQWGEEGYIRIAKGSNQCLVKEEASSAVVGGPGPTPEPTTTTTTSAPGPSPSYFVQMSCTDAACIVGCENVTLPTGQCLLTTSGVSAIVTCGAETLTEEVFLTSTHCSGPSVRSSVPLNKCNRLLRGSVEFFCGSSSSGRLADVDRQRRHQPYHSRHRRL
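Purified cruzain at 1.5 nM, pre-incubated 15 min with compound at room temperature in 100 mM sodium acetate pH 5.5, 5 mM DTT, 0.00005% Triton X-100. Reaction started with 2 uM Z-FR-AMC; AMC fluorescence increase over 60 s gives rate.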
RE007 growth inh: less growth of the S. pombe RE007 Vpr strain; S. pombe RE007 Vpr strain, BacTiter-Glo ATP luminescence, 24 h; control for the full effect not named in the record; Potency, µM (top dose mostly 92.2 µM), inactives show at the highest dose activity change, negative = less growth; 360,000 tested, 0.21% active; AID 651644; active = well fitted falling curve with a large enough effect; inconclusive = small, poorly fitted or top-dose-only effect; inactive = no such curve, though single readings can be large or run the other way;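 also: % is scaled to controls: 0 for no effect and ±100 for the full control effect; nearly all actives have a fitted effect of over 50% in size; the assay follows cell death caused by Vpr and the record does not say whether a fall means rescue or toxicity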
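Fission yeast strain RE007, carrying one chromosomally integrated HIV-1 vpr copy, was seeded at OD 0.01 in PMG+AL medium with 23 nL pinned compound. After 24 h at 30 °C and 99% humidity, viability was read by BacTiter-Glo luminescence.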
Cruzain inh Det: cruzain (T. cruzi) inhibition with detergent | purified cruzain, Z-FR-AMC fluorescence, 0.01% Triton | Potency, µM, inactives show max response, negative = inhibition, usual class: inhibitors | 200,000 tested, 0.43% active;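 also: plate controls were neutral wells for no effect and buffer without enzyme for full effect; nearly all actives have a fitted effect of over 40% in size; top concentration of the series not given in the record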
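Purified cruzain (1.5 nM final) was preincubated with compounds for 15 min at room temperature in 100 mM sodium acetate pH 5.5, 5 mM DTT, 0.01% Triton X-100. Reaction started with 2 uM Z-FR-AMC; AMC fluorescence change over 60 s gave activity.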
SARS PLP yeast: inhibitors of SARS-CoV papain-like protease in yeast. S. cerevisiae expressing SARS-CoV PLpro, growth rescue; control for the full effect not named in the record. Potency, µM (doses to about 32.9 µM), inactives show at the highest dose activity, positive = growth rescue. 330,000 tested, 0.19% active. AID 485353; active means well fitted rising curve with a large enough effect; inconclusive means small, poorly fitted or top-dose-only effect; inactive means no such curve, though single readings can be large or run the other way; also: 0% is about no effect; nearly all actives have a fitted effect of over 55% in size; growth read by luminescence after 48 h
LASV entry inh: inhibitors of Lassa virus binding or cell entry | Lassa virus pseudotype entry inhibition, cell reporter; control for the full effect not named in the record | Potency, µM (top dose mostly 37.9 µM), for the others: top-dose activity change, negative = inhibition, most hits filed as inhibitors | 300,000 tested, 1.2% active | AID 540256; active means well fitted inhibition curve with a large enough effect; inconclusive means small, poorly fitted or top-dose-only effect, or effect the other way; inactive means flat fitted curve, though single readings scatter; tested in HEK293 cells; also: % is scaled to controls: 0 for no effect and ±100 for the full control effect; nearly all actives have a fitted effect of over 50% in size; luciferase read-out
2A StopGo: FMDV 2A StopGo reporter, luciferase signal | Potency, µM (highest dose often 57.9 µM), for inactives: top-dose signal change, negative = less light | 410,000 tested, 1.2% active | human cells with a luciferase reporter of 2A StopGo recoding; control for the full effect not named in the record | AID 1159524; active = well fitted falling curve with a large enough effect; inconclusive = small, poorly fitted or top-dose-only effect; inactive = no such curve, though single readings can be large or run the other way; tested in HEK293T cells; also: % is scaled to controls: 0 for no effect and ±100 for the full control effect; nearly all actives have a fitted effect of over 45% in size; luciferase light after 4 h
An asterisk follows results filed as active; ? = inconclusive; · = not tested or not shown; & = joins results of further samples; [ ] = remark or other dose. Unless noted, calls follow the shape of the dose curve; as a rule, active = well fitted curve in the direction sought with a large enough effect; inconclusive = small, poorly fitted or top-dose-only effect, or another doubt; inactive = no such curve, though single readings can be large; an effect the other way counts as inactive or inconclusive. Potency is read from the fitted curve at half-maximal effect. Rows were taken by chance; any-hit rate near 4.6%.

Compound,Marburg entry inh,NS1 function inh,Cruzain inh noDet,RE007 growth inh,Cruzain inh Det,SARS PLP yeast,LASV entry inh,2A StopGo
O=C(c1ccco1)N1CCN=C1SCc1cccc(F)c1,·,-49%,-10%,16%,5.6%,9%,·,0%
Cn1c(=O)c(=O)n(C)c2cc(S(=O)(=O)N3CCCC3C(=O)NCc3cccnc3)ccc21 (stereo not drawn),-9%[46.1 µM],6%,·,2%,·,1%,19%,-1%
O=C(Cc1cc(=O)[nH][nH]1)N/N=C/c1cccc(Cl)c1Cl,?,10µM*,0%,-10%&3%,-12%,9%&17%,-2%,-10%&-15%
CCOC(=O)c1oc2c(c1C)-c1nn(Cc3cccc(Cl)c3)cc1CC2,6%[46.1 µM],·,-2%,·,-9.3%,·,-9%[46.1 µM],?
Clc1ccc(-n2c(SCc3nc4ccccc4[nH]3)nnc2-c2ccncc2)cc1,-5%,-3%,6%,-5%,8.7%,5%,18%[14.3 µM],-11%
Cc1ccc(S(=O)(=O)/N=C(\N)c2ccc(Cl)cc2)cc1,?,0%,·,-4%,·,-1%,?,-12%
COC(=O)c1sccc1NC(=S)N1CCN(c2ccccc2F)CC1,4%,-3%,-8%,-3%,-3.8%,-6%,-5%,-27%
COC(=O)c1cc(-c2cccc(OC)c2)n[nH]1,?,-9%,6%,-14%,3.0%,7%,-20%,36%[activator]
NS(=O)(=O)c1ccc(NC(=S)NCc2ccccc2Cl)cc1,4%,9%,1%,12%,-2.2%,-2%,-1%,3%
Cn1c(SCC(=O)NNC(=S)Nc2ccccc2)nnc1-c1ccccc1,·,2%,·,-2%,·,0%,·,4%
CCOC(=O)Cn1c(=O)n(CC2CCCO2)c2nc(-c3ccc(C(C)C)cc3)nc(C(N)=O)c21 (stereo not drawn),·,·,-1%,·,1.5%,·,?,-19%
CCCC[n+]1ccn(-c2nc3ccccc3nc2[N-]S(=O)(=O)c2cccs2)c1,-10%[46.1 µM],-1%,·,-3%,·,0%,18%,42%[activator]
COC(=O)C1C2CCC(C2)C1C(=O)OCC(=O)c1ccc(C)cc1 (stereo not drawn),14%,3%,?,-15%,-2.9%,?,-1%,0%
C=C(C)c1cccc(C(C)(C)NC(=O)Nc2ccc(OC)nc2)c1,23%[46.1 µM],17%,·,16%,·,0%,?,-18%
N#Cc1ccc(C23CC4(C2)[C@H](CN(Cc2ccc(-c5ccccc5)cc2)[C@@H]4c2ccccc2)C3c2ccc(C(F)(F)F)cc2)cc1 (stereo partly drawn),·,?,?,-15%,1.1%,1%,·,-13%
Cc1ccc(NS(=O)(=O)c2ccc(-c3cc(C)no3)cc2)c(Br)c1,·,·,-11%,·,-7.8%,·,?,-19%
CCc1nnc(NC(=O)CSc2nc3ccccc3c(=O)n2CCCOC)s1,4%,-23%,22%,-7%,-3.9%,8%,15%,-3%
O=C(NC(=S)Nc1ccc(S(=O)(=O)Nc2nccs2)cc1)C1CC1,·,2%,·,-6%,·,0%,·,107%[activator]
O=C(NNC(=O)c1csc(-c2cccnc2)n1)c1ccccc1,2%,-4%,·,1%,·,0%,3%,28%
Cc1cc(C(=O)N=Nc2c(O)n(C(C)C)c3ccccc23)n[nH]1,-11%[46.1 µM],-5%,0%,11%,-4.3%,3%,-8%,-18%
CCc1cc(=O)[nH]c(SCC(=O)N2CCC(Cc3ccccc3)CC2)n1,1%,·,·,1%,·,-4%,18%,-14%
COc1ccc(-c2nc(C=O)cs2)cc1,22%[46.1 µM],-33%,·,2%,·,-1%,?,23%
O=C(Nc1ccc(C(=O)O)cc1)Nc1cccc2ccccc12,·,-14%,·,8%,·,9%,·,-18%
CNc1ccc(SC#N)cc1,5%[46.1 µM],1%,·,18%,·,2%,-15%,-6%
Cc1ccc(-c2nc3ccccc3[nH]2)cc1NC(=O)COc1ccccc1[N+](=O)[O-],-17%[46.1 µM],·,-16%,·,1.1%,·,?,0%
COC(=O)c1sc(NC(=S)NC(=O)c2ccccc2C)nc1C,14%[46.1 µM],9%,·,-10%,·,0%,-12%,9%
CN(C)S(=O)(=O)c1cccc(NC(=O)c2n[nH]c(=O)c3ccccc23)c1,?,·,·,3%,·,-2%,0%[46.1 µM],-5%
CCOc1ccc(-c2c(C)nn3c(C)c(C(=O)NCCc4ccc(Cl)cc4)cnc23)cc1OCC,·,·,?,·,-2.7%,·,?,?
Cc1cccc2cc3c(NC(=O)c4ccccn4)nn(C)c3nc12,?,-25%,25%,-5%,0.2%,8%,10%,0%
C/C(=N/NC(=S)Nc1ccccc1)c1ccc2c(c1)OCO2,28%,21%,-5%,31%,-13%,29%,?,38%[activator]
C/C(=N\NC(=O)c1ccc(CN(C)S(=O)(=O)c2ccc(C)cc2)cc1)c1ccc(OC(F)F)cc1,-23%,22%,4%,-8%,-2.1%,?,?,?
Cc1ccc(-c2csc(NC3OC(=O)c4ccccc43)n2)cc1 (stereo not drawn),·,1%,·,4%,·,-2%,·,20µM*
O=C(NC1CC1)C1=C[C@@H](c2c[nH]c3ccccc23)C[C@@H](OCCCCO)O1,·,-3%,·,-7%,·,-2%,·,-3%
CC(C)Cc1nn2c(=O)cc(COC(=O)c3ccc(NC(=O)C4CCCCC4)cc3)nc2s1,·,·,-1%,·,0.6%,·,1%[46.1 µM],17%
COc1nc(Oc2ccc(C(=O)OCC(N)=O)cc2)nc(N(C)C)n1,1%,-10%,7%,-11%,-2.0%,-6%,1%,·
CCN(CC)C(=O)NCc1c(C)cc(C)cc1C,-11%[46.1 µM],·,·,3%,·,-1%,16%,1%
CCOC(=O)CNCCC(=O)c1ccc(Br)cc1,-16%,-46%,10µM*,35µM*,25µM*,-13%,-19%,0%
Cc1ccc(NC(=O)COc2ccc(C(=O)NCCc3ccccc3)cc2)cc1,-23%,·,·,2%,·,·,-23%[14.3 µM],32%
O=C1C(c2ccccc2)=C(N2CC2)c2ccccc21,12%[46.1 µM],-45%,0%,?,-4.6%,?,4%,-1%
O=C(COc1ccccc1)Nc1ccc2[nH]ncc2c1,·,7%,·,5%,·,-5%,·,40%[activator]
COc1ccccc1N1CCN(S(=O)(=O)c2ccc(F)c(C(=O)Nc3ccc(Cl)cc3C(F)(F)F)c2)CC1,·,·,?,·,0.5%,·,8%[46.1 µM],-21%
O=C(c1ccc(S(=O)(=O)N2CCCC2)cc1)N1CCN(c2cccc(Cl)c2)CC1,?,11%,·,1%,·,21%,?,?
CN(CC(=O)Nc1ccccc1Cl)C(=O)c1ccc(COc2ccccc2)cc1,-8%,·,·,-2%,·,-6%,-10%,-8%
O=C(O)CC1NC(=S)N(c2ccccc2)C1=O (stereo not drawn),-4%,2%,4%,4%,4.2%,-16%,3%,5%
O=C(COC(=O)C1(c2ccccc2F)CCCC1)N1CCNC1=O,20%[46.1 µM],·,·,-1%,·,1%,-9%,-19%
CC1CCN(C(=S)c2cccc(O)c2)CC1,·,-1%,·,3%,·,-1%,·,-1%
CN(C)c1ccc(CNc2nc(-c3ccco3)nn2C(=O)c2cccc([N+](=O)[O-])c2)cc1,?,·,-5%,·,-3.7%,·,4%[46.1 µM],40%[activator]
O=C(COC(=O)c1ccc([N+](=O)[O-])s1)c1ccc[nH]1,-7%,·,·,?,·,-90%,10%,-2%
Cc1ccc(C(=O)COC(=O)[C@@H](NC(=O)c2ccco2)C(C)C)s1,-28%,·,·,26%,·,-2%,0%,12%
CCOC(=O)c1cnc2ccc(OCC)cc2c1N1CCN(C)CC1,?,-6%,-14%,-34%,-1.9%,6%,-4%,-16%
Cc1cccc(NC(=O)CCC(=O)N/N=C/c2ccc(O)cc2O)c1,?,-1%,·,1%,·,2%,?,-11%
Cc1ccccc1-c1nc(CS(=O)(=O)CC(=O)N2CCOCC2)c(C)o1,-1%[46.1 µM],0%,·,-6%,·,6%,5%[46.1 µM],-10%
COc1ccc(-c2noc(N3CCC(C(=O)Nc4cccc(OC)c4)CC3)n2)cc1,·,-1%,·,6%,·,-5%,·,-22%
CCn1c(SCC(=O)NCCOC)nc2sc(C)c(C)c2c1=O,0%,0%,-1%,·,-3.5%,-1%,·,·
COc1ccc(S(=O)(=O)N2CCCC2CNC(=O)C(=O)NCc2ccc(C)cc2)cc1 (stereo not drawn),-23%[46.1 µM],·,·,1%,·,-1%,?,-16%
CCn1c(SC2CCOC2=O)nnc1-c1ccc(Cl)cc1 (stereo not drawn),·,10%,·,5%,·,0%,·,6%
COc1cc(/C=C2/C(=N)N3N=C(CC(=O)N4CCOCC4)SC3=NC2=O)ccc1OCc1ccc(F)cc1,·,11%,·,-6%,·,1%,·,7%
O=C(NCCc1ccccc1)c1cc(-c2ccc3c(c2)OCO3)on1,17%,-6%,?,3%,1.4%,6%,0%,13%
O=C(Nc1ccccc1Cl)c1ccc(F)c(S(=O)(=O)NCc2ccc(Cl)c(Cl)c2)c1,·,·,?,·,-0.8%,·,-7%[46.1 µM],-8%
O=C(Nc1nccs1)c1ccc2c(=O)n3c(nc2c1)CCCCC3,?,-11%,-16%,·,-4.4%,-22%,?,-26%

(next part)
Compound,Marburg entry inh,NS1 function inh,Cruzain inh noDet,RE007 growth inh,Cruzain inh Det,SARS PLP yeast,LASV entry inh,2A StopGo
CCNC(=S)N(Cc1ccco1)Cc1cc2cc3c(cc2[nH]c1=O)OCCO3,?,8%,-7%,6%,-7.2%,2%,1%,0%
C[C@]12CC[C@@H]3c4ccc(O)cc4C(=O)C[C@H]3[C@@H]1CC[C@@H]2O,·,?,·,-4%[18.4 µM],·,1%,·,-13%
CC1(C)CC(NC(=O)N2c3ccccc3Sc3ccccc32)CC(C)(C)N1,3.2µM*,-1%,·,13%,·,1%,-4%,-3%
Cn1c(SCC(=O)N2CCOCC2)nnc1-c1cccc(NC(=O)c2ccccc2)c1,5%,-6%,-4%,-15%,2.4%,-3%,0%,-4%
